High-throughput results (PubChem BioAssay)
miR-21 reporter: qHTS Assay for Modulators of miRNAs and/orActivators of miR-21; HeLa miR-21 FLuc reporter, luciferase, 48 h; Potency, µM (doses to about 38.3 µM), inactives show at the highest dose reporter change, positive = more light; 340,000 tested, under 10 active; AID 2288, 2010; active = well fitted rising curve with a large enough effect; inconclusive = small, poorly fitted or top-dose-only effect; inactive = no such curve, though single readings can be large or run the other way;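 further: % of control where 0% means no effect; miR-21 action dims this reporter so a rising signal means less miR-21 action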
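HeLa cells stably expressing CMV-driven firefly luciferase with a downstream miR-21 binding sequence, endogenously expressing miR-21, were treated with titrations (up to about 40uM final) for 48 hours at 37 degree Celsius. Luciferase luminescence was read after lysis.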
Rango release inh: qHTS Assay for Inhibitors of RanGTP induced Rango (Ran-regulated importin-beta cargo) - Importin beta complex dissociation. Snurportin-1 (Homo sapiens) + GTP-binding nuclear protein Ran (Homo sapiens) + Importin …. Biochemical FRET Rango-importin beta, RanGTP-induced dissociation. Potency, µM (top dose mostly 46.1 µM), inactives show at the top dose activity change, negative = inhibition. 0.071% of 340,000 active; active means falling FRET ratio curve, often poorly fitted, with flat reads before Ran was added; inconclusive means other falling curves, or compound fluorescence or quenching; inactive means flat or rising ratio curve;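 further: potency means the concentration at half of the fitted maximal effect; % of control where 0% means no effect; nearly all actives have a fitted effect of over 45% in size; -100% = wells without RanGTP and RCC1; the record marks most hits as doubtful in a second field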
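Quantitative HTS using a FRET biosensor: 0.1 uM Rango, 0.25 uM importin beta, 0.6 uM Ran, 2 mM GTP, 0.2 uM RCC1 final, PBS with DTT, Tween-20 and BSA. Post-read taken 45 min after Ran addition.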
GLA inh pH 4.5: qHTS Assay for Inhibitors of Human alpha-Galactosidase at pH 4.5; purified enzyme, 4-MU-alpha-Gal fluorescence, pH 4.5; activity change, negative = inhibition, % at 105 µM; 230,000 tested, under 10 active; AID 1467, 2008; inconclusive = small, poorly fitted or top-dose-only inhibition, or a rising curve; inactive = flat fitted curve, though single readings scatter; no compound was filed as active;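 further: 0% = full activity with enzyme and -100% = basal without enzyme; dose as in the result columns while the protocol names 77 µM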
Rango-impB inh: qHTS Assay for Inhibitors of Rango (Ran-regulated importin-beta cargo) - Importin beta complex formation | Importin subunit beta-1 (Homo sapiens), Q14974 | Rango CFP/YFP FRET sensor + importin beta, 45 min | Potency, µM (highest dose often 92.2 µM), for inactives: top-dose inhibition of complex formation | 0.031% of 340,000 active; active = rising FRET ratio curve, often small or poorly fitted; inconclusive = mostly compound fluorescence or quenching in the first reads; inactive = flat curves in all reads;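 further: potency means the concentration at half of the fitted maximal effect; 0% = DMSO wells and 100% = buffer wells lacking importin beta; nearly all actives have a fitted effect of over 15% in size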
Target sequence (Q14974 whole entry, looked up): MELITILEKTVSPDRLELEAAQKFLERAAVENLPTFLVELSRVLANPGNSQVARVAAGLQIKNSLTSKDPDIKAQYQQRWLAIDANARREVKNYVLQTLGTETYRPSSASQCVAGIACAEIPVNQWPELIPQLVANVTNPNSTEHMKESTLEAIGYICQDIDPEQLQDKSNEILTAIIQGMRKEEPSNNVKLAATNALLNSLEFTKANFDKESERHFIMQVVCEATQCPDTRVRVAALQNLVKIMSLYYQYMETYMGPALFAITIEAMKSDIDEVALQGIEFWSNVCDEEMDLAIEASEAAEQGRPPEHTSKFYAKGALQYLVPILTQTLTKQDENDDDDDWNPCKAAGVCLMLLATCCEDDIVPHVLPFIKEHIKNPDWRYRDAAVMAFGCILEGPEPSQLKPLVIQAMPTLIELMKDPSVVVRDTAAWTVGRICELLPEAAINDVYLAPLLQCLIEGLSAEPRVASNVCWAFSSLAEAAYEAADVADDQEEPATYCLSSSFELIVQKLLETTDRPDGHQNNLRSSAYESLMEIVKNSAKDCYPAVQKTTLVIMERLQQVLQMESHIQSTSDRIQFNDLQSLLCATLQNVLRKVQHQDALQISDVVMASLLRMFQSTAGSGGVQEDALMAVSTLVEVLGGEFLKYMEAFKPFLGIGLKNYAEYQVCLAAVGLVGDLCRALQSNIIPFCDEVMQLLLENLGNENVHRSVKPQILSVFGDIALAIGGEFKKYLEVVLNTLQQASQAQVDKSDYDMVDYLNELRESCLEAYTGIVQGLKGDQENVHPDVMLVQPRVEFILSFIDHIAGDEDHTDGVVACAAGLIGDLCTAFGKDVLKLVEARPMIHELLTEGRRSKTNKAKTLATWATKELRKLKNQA
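FRET biosensor (snurportin 1 IBB flanked by EYFP and cerulean), 50 nM, with compound 5 min, then 0.125 microM importin beta in PBS, 1 mM DTT, 0.02% Tween-20, 0.1% BSA. CFP/YFP ratio read after 45 min at room temperature; pre-read flags interference.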
An asterisk follows results filed as active; ? = inconclusive; . = no result given; & = joins results of further samples. These rows are one share of the data, so the mix of outcomes need not match the whole.

SMILES | miR-21 reporter | Rango release inh | GLA inh pH 4.5 | Rango-impB inh
CN(C)c1nc(C#N)nc(N2CCOCC2)n1 | -4% | 13% | 2 | 0.2%
CC(C)Oc1ccc(S(=O)(=O)N2CCCCC2)cc1NC(=O)CN1C(=O)NC2(CCCC2)C1=O | . | -9% | . | 0.3%
Cc1nc(NC2=NCN(Cc3ccco3)CN2)nc2ccccc12 | 2% | . | -3 | .
CC1CCC(C(C)C)C(OP(=O)(c2ccccc2)C(O)c2ccncc2)C1 (centres undefined) | 1% | -19% | 0 | 0.9%
O=C(CSc1nnc(Nc2ccccc2)s1)NN1C(=O)NC2(CCCCC2)C1=O | 4% | 31% | 3 | -2.0%
Cc1cc(NC(=O)c2ccccc2)c(Cl)cc1N | 13% | 3% | 8 | -1.1%
COc1ccc(CNC(=O)CCSc2ccc(F)cc2)cc1OC | -3% | -4% | 0 | -0.6%
c1ccc(Cc2noc(CN3CCN(Cc4ccc5c(c4)OCO5)CC3)n2)cc1 | 0% | 2% | 4 | -1.1%
Cc1cc(S(=O)(=O)N2CCOCC2)ccc1OCC(=O)Nc1ccc(Br)cc1F | 8% | -6% | . | -2.6%
CCCCNC(=O)CSc1nc2c(sc(=S)n2-c2cc(Cl)ccc2OC)c(=O)[nH]1 | 7% | 1% | . | -3.5%
CCc1cccc(OCCCCNCCCOC)c1 | -4% | -2% | -8 | 0.7%
Cc1cccc(N2C(=O)CS/C2=N\NC(=O)c2ccc(Cl)cc2)c1C | -52% | 0% | 4 | 1.1%
O=C(c1ccc(F)c(S(=O)(=O)N2CCOCC2)c1)N(CCc1ccccc1)Cc1ccccc1 | . | 20% | . | -0.8%
Cc1ccc(NC(=O)NC(=O)c2ccccc2)cc1F | -35% | 5% | . | 2.1%
Cc1ccc(-c2cc(C(=O)Nc3cc(C)on3)c3ccccc3n2)c(C)c1 | 0% | 16% | -2 | 3.1%
CC(C)CN(C#N)c1nc(N2CCOCC2)nc(N2CCOCC2)n1 | -10% | -13% | 2 | -3.5%
COc1cc(NS(=O)(=O)c2ccc(NC(=O)c3ccc(F)cc3)cc2)ncn1 | -10% | -4% | . | -1.3%
Nc1nc(SCC(=O)Nc2ccc(OCc3ccccc3)cc2)n[nH]1 | -30% | -11% | -10 | -1.1%
O=C(NCCc1ccc(F)cc1)c1n[nH]c2ccccc12 | -54% | -8% | -3 | 4.5%
COc1ccc(-c2cn3cc(C)ccc3n2)cc1OC | -14% | -18% | 1 | -0.9%
C=CCC[C@@H](Cc1ccc(F)cc1)C(=O)OC[C@H](Cc1c[nH]c2ccccc12)NC(=O)[C@@H](CC=C)CC(=O)N[C@@H](CO)Cc1ccccc1 | . | 1% | . | -1.9%
CCOC(=O)/C=C/C(=O)OCc1csc(CC(=O)Nc2ccccc2C)n1 | -4% | -23% | . | -2.2%
Cc1cccc(C(=O)NCCNC(=O)c2cccnc2)c1 | -1% | -5% | . | -2.1%
CC(=O)NC(CC(=O)OCC(=O)Nc1ccc2c(c1)OCO2)c1ccccc1 (centres undefined) | -2% | -4% | . | -2.3%
O=c1c2ccccc2[nH]c(=S)n1CCCn1ccnc1 | -7% | -4% | . | 4.3%
CCOc1ccc(NC(=O)CN2CCc3ccccc3C2)cc1 | 0% | -5% | . | 0.6%
COc1ccc(-c2nn(-c3ccccc3)cc2CNCc2cccnc2)c(F)c1 | -5% | -10% | 0 | 7.5%
COc1ccc(OC)c(NC(=O)CCN2CCN(CCO)CC2)c1 | -11% | 10% | . | 5.3%
CCOC(=O)c1ccc(NC(=O)CSc2ccc(-c3ccncc3)nn2)cc1 | 6% | -9% | -15 | -1.4%
Cc1cc(F)ccc1S(=O)(=O)N1CCCOC1CNC(=O)C(=O)NCCC1=CCCCC1 (centres undefined) | -4% | 2% | 1 | 0.6%

Given with two lines to a compound: 6 of the compounds above
Fields – miR-21 reporter	Rango release inh	GLA inh pH 4.5	Rango-impB inh
> CC(=O)NC(CC(=O)OCC(=O)Nc1ccc2c(c1)OCO2)c1ccccc1 (centres undefined)
→ -2%	-4%	.	-2.3%
> O=c1c2ccccc2[nH]c(=S)n1CCCn1ccnc1
→ -7%	-4%	.	4.3%
> CCOc1ccc(NC(=O)CN2CCc3ccccc3C2)cc1
→ 0%	-5%	.	0.6%
> COc1ccc(-c2nn(-c3ccccc3)cc2CNCc2cccnc2)c(F)c1
→ -5%	-10%	0	7.5%
> COc1ccc(OC)c(NC(=O)CCN2CCN(CCO)CC2)c1
→ -11%	10%	.	5.3%
> CCOC(=O)c1ccc(NC(=O)CSc2ccc(-c3ccncc3)nn2)cc1
→ 6%	-9%	-15	-1.4%

(list continues)
SMILES | miR-21 reporter | Rango release inh | GLA inh pH 4.5 | Rango-impB inh
COc1ccc2c(c1OC)C(=O)N1c3ccccc3C(=O)N(c3ccc(F)cc3)C21 (centres undefined) | 10% | -15% | -4 | 0.2%
Cn1c(=O)c2c(nc(Oc3cccc(Br)c3)n2C)n(C)c1=O | -2% | 4% | . | -0.4%
COC(=O)c1cc(NC(=O)c2cccc(C(F)(F)F)c2)c(=O)oc1C | 4% | -11% | 2 | ?
CCOC(=O)N1CCN(c2ccc(S(=O)(=O)N(Cc3ccccc3)Cc3ccccc3)cn2)CC1 | 1% | -3% | -4 | -0.4%
CCOc1ccc(N2CC(=O)SC2=S)cc1 | -14% | 10% | 3 | 1.5%
O=C(CSc1nnc(NC(=O)c2ccco2)s1)Nc1ccc2c(c1)OCCO2 | 2% | -4% | -14 | 4.7%
Cc1ccc(-n2ccn(CC(=O)NCCc3ccccc3)c(=O)c2=O)cc1C | -31%&-1% | -2% | . | -3.0%
CCOC(=O)C1CCCN(C(=O)CCCOc2cc(=O)n(C)c3ccccc23)C1 (centres undefined) | -7% | -14% | 5 | -0.1%
CCSc1nnc(NC(=O)C(C)Sc2nc3ccccc3[nH]2)s1 (centres undefined) | -4% | -16% | -6 | 1.2%
CCOc1ccccc1CN1CCNC(=O)C1CC(=O)NCCC1=CCCCC1 (centres undefined) | -1% | -8% | . | -1.4%
CCOC(=O)C1(C(=O)OCC)CCN(S(=O)(=O)c2ccccc2)CC1 | . | -6% | . | 2.7%
Cc1ccc(-n2nnnc2Sc2nc([N+](=O)[O-])nn2C)cc1 | ? | -11% | -1 | 0.0%
COc1ccc([N+](=O)[O-])cc1-n1cccc1 | -1% | -10% | 7 | 0.8%
COCCN1C(=O)N[C@@H](c2cccc(C(F)(F)F)c2)[C@@H](C(=O)OC)[C@H]1C | . | -2% | 6 | 0.2%
O=C(Nc1nc(-c2ccccn2)cs1)c1ccc([N+](=O)[O-])o1 | ? | -11% | -7 | 2.4%

Single values from above:
Rango release inh, Cc1ccc(-n2nnnc2Sc2nc([N+](=O)[O-])nn2C)cc1 stands at -11%
GLA inh pH 4.5, CCSc1nnc(NC(=O)C(C)Sc2nc3ccccc3[nH]2)s1 (centres undefined) stands at -6
Rango-impB inh, CCOC(=O)N1CCN(c2ccc(S(=O)(=O)N(Cc3ccccc3)Cc3ccccc3)cn2)CC1 stands at -0.4%

Carrying on.
SMILES | miR-21 reporter | Rango release inh | GLA inh pH 4.5 | Rango-impB inh
CC(C)c1ccc(/C=C2\SC(N3CCOCC3)=NC2=O)cc1 | -17% | 0% | -3 | -3.6%
COc1ccc(-c2csc(NC(=O)CSCC(=O)Nc3cc(C)on3)n2)c(OC)c1 | . | -7% | . | ?
CC(C)/C=C/CN1CCCC(N2CCN(c3cccc(Cl)c3)CC2)C1 (centres undefined) | 7% | 7% | . | 0.8%
CCOC(=O)C(=O)/C(C#N)=C/Nc1ccc(F)cc1 | 0% | -3% | -4 | -1.5%
CC(C)c1ccc(-c2cc(C(=O)N3CCOCC3)c3cc(Br)ccc3n2)cc1 | 1% | 6% | . | 1.6%
O=C(CC1C(=O)NCCN1Cc1ccc(F)cc1)NCCN1CCCc2ccccc21 (centres undefined) | -1% | -1% | 11 | ?
CN(C)CCNC(=O)c1csc(Nc2cccc3ccccc23)n1 | 18% | 11% | . | -3.3%
CCCCNC(=O)NC12CC3CC(CC(C3)C1)C2 | 4% | 1% | 4 | 1.2%
COc1ccccc1NS(=O)(=O)c1cccs1 | -2% | 0% | 2 | 0.0%
CCCC(=O)N(Cc1cc(=O)[nH]c2ccccc12)c1ccc(C)cc1C | -1% | 0% | . | 5.4%
CSc1ccc(-c2nc(CN3CCCCC3c3cccnc3)c(C)o2)cc1 (centres undefined) | 0% | -21% | -5 | -3.8%
Cc1nn(C2CCCCC2)c(N)c1-c1ccccc1 | -21% | 7% | 2 | -3.5%
CCCCOc1ccc(-c2nnc(-c3cc[n+](C)cc3)o2)cc1 | 7% | 14% | -9 | 7.0%
COc1ccc(C(=O)N2CCN(c3ccc(C(C)=O)cc3)CC2)cc1S(=O)(=O)N1CCCC1 | . | -8% | . | 2.5%
Cc1oc(S(=O)(=O)N(C)C)cc1C(=O)Nc1ccc(Cl)cc1 | 5% | -7% | 5 | 1.0%
O=[N+]([O-])c1ccc(COc2cccc(CN3CCCCC3)c2)cc1 | . | 0% | . | -0.3%
O=C1C2CC=CCC2C(=O)N1Cc1nnc(-c2ccc(Cl)cc2)o1 (centres undefined) | -39% | 1% | 5 | -3.6%
O=C1NC2(CCCCCC2)C(=O)N1Cc1cccc([N+](=O)[O-])c1 | -10% | 21% | . | 0.0%
O=C(Nc1ccc(F)cc1)NC1CCN(Cc2nnnn2Cc2ccco2)CC1 | -3% | -5% | -1 | ?
NC(=O)COC(=O)c1ccccc1SCC(=O)NC1CCCCCCC1 | . | 3% | . | -2.5%
O=C(O)c1ccc(NS(=O)(=O)c2cccc(C(=O)Nc3cccc(C(=O)O)c3)c2)cc1 | -2% | -18% | . | 3.3%
CCc1ccc(C(CNC(=O)c2ccc3c(=O)n(-c4ccccc4F)c(=S)[nH]c3c2)N(C)C)cc1 (centres undefined) | 27% | 10% | -3 | 0.1%
O=C(CSCc1cccc(F)c1)N1CCN(c2ccccc2)CC1 | -42% | 9% | -10 | 0.2%
Cc1cccc(C)c1NC(=O)CN(C)C(=O)COc1cccc2c1OC(C)(C)C2 | . | 6% | . | -0.1%
O=C(N/N=C/C(Br)=C\c1ccccc1)c1ccc2nc[nH]c2c1 | -16% | 8% | -4 | 1.3%
CCCCNC(=O)c1onc(CSc2ccc(Cl)cc2)c1C(=O)O | -12% | -23% | -10 | 5.7%
O=C(CN1C(=O)NC2(CCCC2)C1=O)Nc1nc2ccccc2[nH]1 | . | 7% | . | 3.2%
CC1CN(S(=O)(=O)c2cccc(C(=O)OCCOc3ccccc3)c2)CC(C)O1 (centres undefined) | . | -2% | . | -1.2%
CCc1ccc(OCC(=O)NNC(=O)c2ccc(-n3cncn3)c([N+](=O)[O-])c2)cc1 | . | 2% | . | 0.2%
COc1ccccc1CN1CCN(Cc2ccco2)CC1 | -5% | 3% | . | -0.2%
O=C(CN1C(=O)NC(c2ccccc2)(c2ccccc2)C1=O)NCc1ccccc1 | . | -8% | . | -0.3%
O=C(Nc1ccc(F)cc1)c1ccccc1CC[N+](=O)[O-] | -13% | -3% | -16 | 0.3%
CCOC(=O)c1[nH]c(C)c(C(=O)N2CCc3c([nH]c4ccccc34)C2c2ccccn2)c1C (centres undefined) | 21% | 21% | -8 | -1.7%
COC(=O)c1c(C)nn(-c2ccc(OC(F)(F)F)cc2)c1-c1snnc1C | 25% | 1% | -4 | ?
O=C(OCC(=O)N1CCCC1)c1cc(Br)ccc1Cl | -1% | 6% | 2 | 4.5%
O=C(Cn1nnc(-c2ccccc2-n2cnnn2)n1)c1ccccc1 | 2% | -18% | -2 | -5.8%
Cc1c(OCC(=O)NCc2ccncc2)ccc2c3c(c(=O)oc12)CCCC3 | 1% | -7% | . | 1.2%
COc1ccc(NC(=O)CC(C)n2ccnc2)cc1 (centres undefined) | 1% | 12% | . | 0.8%
CCOC(=O)CN(C(=O)CNC(=O)c1cccs1)C(C(=O)NC1CCCCC1)c1cccs1 (centres undefined) | 1% | 13% | 5 | -0.8%
COc1ccc(/C=C/C(=O)NC(=S)Nc2ccc(S(N)(=O)=O)cc2)cc1OC | -4% | 6% | . | 2.3%
